Mtb growth: M. tuberculosis H37Rv growth inhibitors, H37Rv strain (AID 1626) | actives 0.95% (n = 220,000) | M. tuberculosis H37Rv growth inhibition; higher % means a stronger effect | inhibition, % at 10 µM; hits with a dose series show IC50 in µM;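 active means confirmed in a dose series; inconclusive means inhibition above 80% but not taken into the dose series; inactive means below 80% or under 30% at every dose of the series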;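 further: bacteria incubated seven days before Alamar blue readout; 0% = bacteria only wells and 100% = bacteria with antibiotic wells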
Arbovirus anti: antivirals against arbovirus infection, primary screen, cell-based, full library, 10K replicate subset; AID 1251, 2008; arbovirus infection cell-based antiviral screen; actives 0.37% (n = 200,000); inhibition, % at 10 µM;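 active means inhibition from about 30%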;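 further: bluetongue infection of BSR cells; cell survival read as ATP light after 72 h; 0% = infected wells without compound and 100% = uninfected wells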
RecA splice inh: Mtb RecA intein splicing inhibitors, primary screen, biochemical, fluorescence, HTS | cell-free RecA intein splicing | actives 0.75% (n = 290,000) | inhibition, %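 (about 9 µM by stock and volumes)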 | Protein RecA (Mycobacterium tuberculosis (strain ATCC 25618 / H37Rv)), P9WHJ3 | AID 2221, 2009; in the data active means inhibition above about 30%; inconclusive means no clear call, values can overlap the other calls;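 further: 0% = vehicle wells and 100% = reference inhibitor control wells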
Target sequence (P9WHJ3 whole entry, looked up, canonical isoform): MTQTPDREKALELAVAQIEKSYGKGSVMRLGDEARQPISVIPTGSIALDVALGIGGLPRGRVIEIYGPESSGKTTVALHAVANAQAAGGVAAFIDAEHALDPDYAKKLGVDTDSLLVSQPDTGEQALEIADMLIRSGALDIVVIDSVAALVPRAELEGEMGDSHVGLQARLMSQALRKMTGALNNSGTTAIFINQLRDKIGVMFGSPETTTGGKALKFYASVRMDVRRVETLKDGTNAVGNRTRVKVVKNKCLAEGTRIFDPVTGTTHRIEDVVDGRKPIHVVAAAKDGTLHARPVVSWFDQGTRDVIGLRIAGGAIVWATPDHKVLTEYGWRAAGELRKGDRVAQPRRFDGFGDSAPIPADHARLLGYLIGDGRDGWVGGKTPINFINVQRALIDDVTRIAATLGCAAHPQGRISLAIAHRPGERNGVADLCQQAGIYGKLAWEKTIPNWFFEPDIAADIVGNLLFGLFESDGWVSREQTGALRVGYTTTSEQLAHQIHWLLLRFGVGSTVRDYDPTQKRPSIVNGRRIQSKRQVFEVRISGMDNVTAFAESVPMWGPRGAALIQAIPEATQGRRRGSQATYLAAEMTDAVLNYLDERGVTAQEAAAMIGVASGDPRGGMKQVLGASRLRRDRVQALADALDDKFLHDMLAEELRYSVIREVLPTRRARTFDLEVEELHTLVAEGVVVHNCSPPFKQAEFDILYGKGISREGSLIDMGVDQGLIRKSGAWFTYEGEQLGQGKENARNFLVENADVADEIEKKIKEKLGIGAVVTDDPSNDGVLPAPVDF
Mtb betalactam: beta-lactam sensitization of Mtb H37Rv, H37Rv; actives 0.27% (n = 330,000); M. tuberculosis H37Rv growth with meropenem, percent inhibition; hits of this screen are not shown here; AID 434955, 2010; inhibition, % at 25 µM;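 active means about 74% or more and at least 40 points above the plate without the antibiotic, then above 30% in a dose series; inconclusive means first-round hits that could not be retested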;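 further: growth measured after seven days incubation then overnight dye step; 0% = bacteria only wells and 100% = bacteria with antibiotic; twin plates without the antibiotic show which effects depend on it; some results filed as inactive read as strong as hits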
YopH PTP inh: YopH tyrosine phosphatase inhibitors, primary screen, biochemical, fluorescence Ex485/Em525. AID 898, 2007. actives 0.16% (n = 140,000). inhibition, %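 (about 10 µM by stock and volumes)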;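 active means inhibition of 50% or more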;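 further: controls were vehicle for no effect and minimum signal wells for full effect; inactives centre near -20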
Arbovirus anti repeat: further read-out of Arbovirus anti, marked with its call; inhibition, %; measured here: 10K subset replicate screen; many hits read low in the repeat;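 first of two repeat runs on a subset; 0% = infected and 100% = uninfected wells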
The depositor's hits bear a star; ? = inconclusive; · = no result given. The list is partial (hit frequency here may not be typical).

SMILES | Mtb growth | Arbovirus anti | RecA splice inh | Mtb betalactam | YopH PTP inh | others
CC(=O)O[C@@H]1[C@H]2CC[C@@H]3[C@]1(C[C@@H](OC(C)=O)[C@@]1(O)C([C@@H]4O[C@@H]4C1(C)C)[C@]3(C)O)C[C@@]2(C)O (stereo partly specified) | -10% | 7 | 0.8 | -3 | -38
O=C(CN(Cc1cccs1)C(=O)CCC(=O)Nc1ccccn1)NCc1ccccc1 | -8% | -2 | -8.1 | -8 | ·
O=C(O)C1=C[C@H](c2ccc3c(c2)OCO3)C[C@H](OCCCCO)O1 | -3% | · | -4.2 | 0 | ·
O=C(C[n+]1ccccc1)N/N=C/c1ccc(F)cc1 | -14% | -3 | 6.4 | -8 | ·
C=CCONC(=O)c1cc(OCC(F)(F)F)ccc1OCC(F)(F)F | -3% | -2 | -1.2 | -1 | -35
COc1ccccc1-c1nnc2n1N=C(c1ccc(O)c(O)c1)CS2 | -21% | -18 | -7.3 | 4 | -16
CCCCCc1nnc(NC(=O)c2ccc(=O)n(C)n2)s1 | 5% | -3 | -1.3 | -7 | ·
COc1ccc(COC(=O)C2=C(C)NC(=O)NC2c2cc(OC)ccc2OC)cc1 (stereo unspecified) | · | · | -3.2 | -3 | ·
Cc1cc2ccccn2c1C(=O)c1ccc(C#N)cc1 | · | · | -1.1 | 1 | ·
Cc1ccc(C2CC(C(F)(F)F)n3ncc(C(N)=O)c3N2)cc1 (stereo unspecified) | -4% | 3 | 1.2 | -18 | -46
Cc1ccn2cc(C(=O)Nc3nnc(C)s3)nc2c1 | -6% | -12 | -1.6 | 44 | -24
COC(=O)c1cccc(COC(=O)c2ccc(N(C)C)cc2)c1 | -4% | -3 | 4.2 | 5 | -20
CCSc1nc(=S)n(-c2ccccc2)c(C)c1C(C)=O | 9% | 3 | 28 | -10 | -16
O=C(COC(=O)CNC(=O)c1ccc(Cl)c([N+](=O)[O-])c1)NC(=O)CN1CCCC1=O | · | · | -4.5 | -7 | ·
Cc1cccc(NC(=O)CN2C(=O)S/C(=C\c3ccccn3)C2=O)c1 | 3% | 7 | 15 | -2 | ·
CCc1nnc(NS(=O)(=O)c2ccc(NC(=S)NC(=O)c3ccncc3)cc2)s1 | 4% | · | -0.9 | 3 | ·
NC1=NC(=O)/C(=C\c2cc([N+](=O)[O-])ccc2Cl)S1 | -3% | 1 | -1.1 | 5 | ·
CN(c1ccc(C(=O)Nc2ccc(F)cc2F)cc1)S(=O)(=O)c1ccccc1 | · | · | 4.5 | 16 | ·
CC(=O)N1c2ccc(S(=O)(=O)N3CCC(C(=O)Nc4cccc(C)c4)CC3)cc2CC1C (stereo unspecified) | · | · | 0.8 | 0 | ·
COc1ccc(/C=N/n2cnc3c([nH]c4ccc(F)cc43)c2=O)cc1CSc1ccccn1 | -6% | · | 1.0 | 2 | ·
Cc1cccc(C)c1-n1c(C)cc(/C=N/NC(N)=S)c1C | 5% | -6 | 6.7 | 72 | -21
Cc1nc(CNS(=O)(=O)c2cc(C)c(C)cc2C)cs1 | -4% | 7 | 1.6 | -3 | -15
Cn1cc(C(=O)N2CCCC(Nc3ccc(F)cc3)C2)c2ccccc21 (stereo unspecified) | · | · | -4.0 | -2 | ·
Cc1cc(/C=C2\C(=O)NC(=O)N(c3cccc(F)c3)C2=O)c(C)n1-c1ccc(C(=O)O)c(Cl)c1 | · | · | 0.1 | 3 | ·
O=C(Cc1ccc([N+](=O)[O-])cc1)c1ccc(O)cc1O | -3% | · | 2.8 | -4 | ·
O=C(COc1ccccc1)Nc1ccc2[nH]c(=O)[nH]c2c1 | 1% | 4 | · | 3 | ·
Cc1ccccc1-n1nc(C)c2c1N=C1C(Cl)=CC(Cl)=CN1C2c1ccc(C(=O)O)cc1 (stereo unspecified) | -4% | 14 | 4.3 | -12 | -23
O=c1c2ccccc2ncn1-c1cccc(Cl)c1 | -7% | 0 | -3.8 | -3 | 36
Cc1nnc(SCc2nc3scc(-c4ccccc4)c3c(=O)[nH]2)s1 | 2% | · | -0.3 | 0 | ·
COc1ccc(NC(=O)CN(c2ccc(OC)cc2)S(=O)(=O)c2ccc(OC)c(OC)c2)cc1 | · | · | 1.0 | -5 | ·
CC(OC(=O)CCCN=C1NS(=O)(=O)c2ccccc21)C(=O)Nc1ccc(F)cc1Cl (stereo unspecified) | · | · | -1.9 | -10 | ·
O=C(NCCN1CCCCC1)c1ccc(F)cc1Cl | · | · | -2.1 | -3 | ·
O=C(N/N=C\C=C\c1ccc2c(c1)OCO2)C1COc2cc3ccccc3cc2O1 (stereo unspecified) | 8% | -3 | -0.8 | 63 | -38
CCOC(=O)N1CCN(c2c(NCC3CCCO3)c(=O)c2=O)CC1 (stereo unspecified) | 2% | -1 | 2.4 | 6 | -49
COc1ccc(-c2nnc(N(C)C(=O)c3ccno3)s2)cc1 | 4% | -4 | 0.5 | -11 | -19
Cc1ccc(-c2noc(-c3cc4ccccc4oc3=O)n2)cc1 | 1.5µM* | 1 | 2.0 | 95 | -40
Cn1c(=O)n(CC(=O)NCC2CCCO2)c(=O)c2c3c(sc21)COC(C)(C)C3 (stereo unspecified) | · | · | 0.7 | -4 | ·
C/C(=N\Nc1cc(C(F)(F)F)ccc1Cl)c1ccncc1 | · | · | 8.0 | 88 | ·
COc1ccc(S(=O)(=O)Nc2cc(C(=O)NC(C)C)ccc2N2CCOCC2)cc1 | -1% | -20 | 0.9 | 3 | -1
Cc1ccc(S(=O)(=O)c2cc3c(=O)n4cccc(C)c4nc3n(CC3CCCO3)c2=N)cc1C (stereo unspecified) | 0% | · | -32 | -2 | ·

Entries from the list above that have a COOH group (three):
SMILES | Mtb growth | Arbovirus anti | RecA splice inh | Mtb betalactam | YopH PTP inh | others
O=C(O)C1=C[C@H](c2ccc3c(c2)OCO3)C[C@H](OCCCCO)O1 | -3% | · | -4.2 | 0 | ·
Cc1cc(/C=C2\C(=O)NC(=O)N(c3cccc(F)c3)C2=O)c(C)n1-c1ccc(C(=O)O)c(Cl)c1 | · | · | 0.1 | 3 | ·
Cc1ccccc1-n1nc(C)c2c1N=C1C(Cl)=CC(Cl)=CN1C2c1ccc(C(=O)O)cc1 (stereo unspecified) | -4% | 14 | 4.3 | -12 | -23

Back to the main list; the two compounds before the break are reprinted first.
SMILES | Mtb growth | Arbovirus anti | RecA splice inh | Mtb betalactam | YopH PTP inh | others
COc1ccc(S(=O)(=O)Nc2cc(C(=O)NC(C)C)ccc2N2CCOCC2)cc1 | -1% | -20 | 0.9 | 3 | -1
Cc1ccc(S(=O)(=O)c2cc3c(=O)n4cccc(C)c4nc3n(CC3CCCO3)c2=N)cc1C (stereo unspecified) | 0% | · | -32 | -2 | ·
COc1ccccc1S(=O)(=O)Cc1ccc(C(=O)NCc2ccco2)o1 | · | · | -0.2 | -5 | ·
CCc1nn(CC(=O)NCCCN(CC)c2cccc(C)c2)c(=O)c2cc3occc3n12 | -2% | -3 | -1.6 | -9 | ·
Cc1cc(C(=O)OCC(=O)c2ccc(Br)s2)c(C)o1 | · | 1 | 4.0 | -1 | -31
CCc1cccc2c(N=O)c(O)[nH]c12 | -12% | 8 | 2.7 | -2 | -48
Cc1cc(NC(=O)c2cccnc2Cl)ccc1NC(=O)c1cc2ccccc2o1 | · | · | -2.2 | 5 | ·
CCCc1cnc(N2CCN(C(=O)c3ccc(F)cc3)CC2)nc1 | · | · | -0.6 | 4 | ·
COc1ccc(C(=O)N/N=C(\C)Cn2nc([N+](=O)[O-])cc2C)cc1 | 5% | -2 | -0.3 | 10 | -6
C=CCOC(=O)c1[nH]c2c(c1C)C(=O)CC(c1cc(OC)c(OC)c(OC)c1)C2 (stereo unspecified) | 8% | 7 | -1.2 | 5 | 6 | Arbovirus anti repeat=6
Cc1ccc(NC(=O)CN2C(=O)C3CCCCN3C(=O)c3ccccc32)cc1 (stereo unspecified) | 5% | -5 | 3.2 | -1 | -6
Cn1c(=O)c2c(ncn2CC(=O)N2CCN(S(=O)(=O)c3ccc(Cl)cc3)CC2)n(C)c1=O | · | · | 7.0 | ? | ·
COc1ccc(N(CC(=O)NCCSC2CCCCC2)S(=O)(=O)c2ccc(C)cc2)cc1 | · | · | -2.7 | 6 | ·
NS(=O)(=O)c1ccc(CNC(=O)CSc2nc3ccc(Cl)cc3[nH]2)cc1 | · | · | 0.0 | -2 | ·
Cc1ccc(C)c(N2CCN(C(=O)C3CCN(S(=O)(=O)c4cccc5nsnc45)CC3)CC2)c1 | · | 0 | 3.3 | -1 | -25
OCCCCNCc1cc(Br)ccc1OCc1ccccc1F | 25% | -15 | -0.6 | -4 | ·
CCc1nc(NC2CCCCC2)c(C#N)c2c1COC(C)(C)C2 | 9% | -12 | 8.0 | 1 | -12
CCOC(=O)c1ccc(NC(=S)N(CCCN2CCCCC2)Cc2ccco2)cc1 | ? | -12 | 0.2 | -2 | -5
COC(=O)[C@H](CCSC)NC(=O)Nc1ccc(C(C)=O)cc1 | 0% | 1 | 4.7 | -4 | -47
CCCn1c(O)c(N=N)c2ccccc21 | -3% | -7 | -0.3 | -5 | ·
CC(C)(C)c1ccc(/C=N/OCC(=O)NCc2ccccc2)cc1 | 2% | -19 | 5.0 | -5 | -29
O=C(Nc1nnc(SCc2ccccc2F)s1)c1ccco1 | -10% | -3 | -2.4 | -2 | -19

Grouped by structure: the entries above containing a furan ring, fused or not.
SMILES | Mtb growth | Arbovirus anti | RecA splice inh | Mtb betalactam | YopH PTP inh | others
COc1ccccc1S(=O)(=O)Cc1ccc(C(=O)NCc2ccco2)o1 | · | · | -0.2 | -5 | ·
CCc1nn(CC(=O)NCCCN(CC)c2cccc(C)c2)c(=O)c2cc3occc3n12 | -2% | -3 | -1.6 | -9 | ·
Cc1cc(C(=O)OCC(=O)c2ccc(Br)s2)c(C)o1 | · | 1 | 4.0 | -1 | -31
Cc1cc(NC(=O)c2cccnc2Cl)ccc1NC(=O)c1cc2ccccc2o1 | · | · | -2.2 | 5 | ·
CCOC(=O)c1ccc(NC(=S)N(CCCN2CCCCC2)Cc2ccco2)cc1 | ? | -12 | 0.2 | -2 | -5
O=C(Nc1nnc(SCc2ccccc2F)s1)c1ccco1 | -10% | -3 | -2.4 | -2 | -19

The list continues.
SMILES | Mtb growth | Arbovirus anti | RecA splice inh | Mtb betalactam | YopH PTP inh | others
O=[N+]([O-])c1ccccc1S(=O)(=O)N1CCN(C2CCN(Cc3ccccc3)CC2)CC1 | · | · | -1.6 | 2 | ·
Oc1ccc2cccnc2c1 | 1% | 19 | -192 | -8 | -2
CC(Oc1ccc2c3c(c(=O)oc2c1)CCC3)C(=O)NCc1ccccn1 (stereo unspecified) | · | · | 1.2 | 3 | ·
Cc1c(C)n(Cc2ccc(F)cc2)c2ccc(C(=O)NCCCN3CCOCC3)cc12 | · | · | 1.8 | -5 | ·
Cc1cccc(N2CCN(C(=O)c3ccc(N4CCCC4=O)cc3)CC2)c1C | · | 4 | -2.2 | 9 | -51
COc1ccc2oc(C(=O)Nc3ccccn3)c(C)c2c1 | · | · | -3.5 | 20 | ·
Cc1cccc(-n2ncc(C#N)c2-n2cccc2)c1 | -3% | 2 | -3.3 | -2 | -44
COc1cccc(NC(=S)NNC(=O)Cn2nc(C(F)(F)F)cc2C)c1 | 3% | -7 | -3.5 | -4 | -26
CCc1cc2c3c(c1)/C(=C1/SC(N)=NC1=O)C(=O)N3C(C)(C)C=C2C | 0% | -6 | 0.8 | 13 | -33
COc1ccc(C(=O)Nc2ccc(S(=O)(=O)Nc3nccnc3OC)cc2)cc1 | 3% | 5 | 0.9 | -2 | -11
COc1ccc2[nH]c(=O)c(CN(C(=O)c3cccnc3)c3ccccc3)cc2c1 | -4% | -6 | -0.6 | -8 | -24
Oc1c(Br)cc(Br)cc1C=Nc1ccc2c(c1)OCO2 | ? | -12 | 0.5 | 63 | -22
O=C(NCc1ccco1)c1cccnc1Cl | -4% | 5 | 8.8 | -2 | -33
Cc1cccc(NC(=O)COC(=O)Cc2cccc(C(F)(F)F)c2)c1C | -2% | -14 | 2.7 | 4 | -18
CCOC(=O)c1cnc(-n2nc(C)cc2C)[nH]c1=O | ? | · | -2.5 | 84 | ·

Screening results from PubChem.
